rRNA inh HTS: inhibitors of bacterial rRNA selective over humanized ribosomes. E. coli WT GFP vs humanized-ribosome RFP mutants, fluorescence, 24 h; stronger effect = lower value; DMSO median 0, no signal -100. GFP signal change (wild-type ribosome), % (concentration not given with the values). hit rate 1.6% among 350,000;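 active = significant combined selectivity score with lowered wild-type GFP, culture density cut under 30%, mutant RFP and density less affected; inactive = any of these conditions unmet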; note: one replicate is shown; some compounds called inactive have numbers as strong as hits
Calb FLC: affects C. albicans growth with fluconazole; C. albicans CaCi-2 (fluconazole-resistant clinical isolate) + fluconazole, Alamar Blue growth, 48 h; growth inhibition, % (no concentration beside the values); hit rate 0.57% among 300,000; AID 1979;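 active = most replicates above 75%; inconclusive = exactly half above 75%; inactive = most below 75%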;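 note: all wells also contain fluconazole at 8 µg/ml as a sub-toxic cotreatment; 0% = median of DMSO wells and 100% = median of geldanamycin control wells; wells of about 8 µL received 7.5 nL stock; the first replicate is given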
T cruzi inh: T. cruzi replication inhibition; AID 1885; inhibition, % (concentration not given with the values); hit rate 1.4% among 300,000; T. cruzi beta-gal in NIH3T3, luminescence, 90 h;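 active = mean inhibition across valid replicates above about 55%, limit read from the data; inconclusive = mean below that limit but half or more replicates reach it; inactive = mean below it, under half of replicates reach it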;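 note: signal also drops with host cell toxicity which is not excluded here; 0% = plate median of DMSO wells and 100% = zero luminescence signal; higher percent means less beta-gal luminescence so fewer parasites; stock transfer was 50 nL into about 50 µL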
Beta apoptosis: beta cell apoptosis inhibition. INS-1E cytokine-induced death, ATP luminescence, 48 h; percent of positive-control rescue, neutral wells zero. protection from apoptosis, % (test concentration not listed). hit rate 0.8% among 300,000. AID 435005;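 active = all replicates at 75% or more, or half of them and the mean; inconclusive = half reach 75% but not the mean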;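 note: 0% = cytokine-treated negative control wells and 100% = positive control rescue; higher means more ATP so stronger rescue from cytokine killing; wells of about 40 µL received 100 nL stock; the first replicate is given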
RanGTP-Imp inh: inhibitors of RanGTP-importin-beta interaction, primary screen, biochemical, FRET, CFP-Ran, YFP-importin-beta, homogeneous | cell-free CFP-Ran/YFP-importin-beta FRET ratio | inhibition, % (no concentration beside the values) | hit rate 1.1% among 300,000 | AID 2216;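 active = most replicates above 15%; inconclusive = exactly half above 15%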;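 note: 0% = DMSO wells and 100% = Ran loaded with GDP instead of GTP; wells of about 40 µL received 100 nL stock; the first replicate is given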
MLL AF4-AF9 inh: MLL-AF4/AF9 protein interaction inhibition; P42568; AlphaScreen, biotin-AF4 peptide binding to FLAG-AF9; inhibition, % at 10 µM; hit rate 0.47% among 350,000; AID 651704;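 active = every replicate reaching a set inhibition limit, whatever the replicate mean, cut at about 25% in these data; inconclusive = mean inhibition reaches that limit but some replicates miss it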;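 note: 0% = plate neutral control median and 100% = total signal loss; the record names both 10 and 1 µM as test concentration; the first replicate is given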
Target sequence (P42568 whole entry, looked up): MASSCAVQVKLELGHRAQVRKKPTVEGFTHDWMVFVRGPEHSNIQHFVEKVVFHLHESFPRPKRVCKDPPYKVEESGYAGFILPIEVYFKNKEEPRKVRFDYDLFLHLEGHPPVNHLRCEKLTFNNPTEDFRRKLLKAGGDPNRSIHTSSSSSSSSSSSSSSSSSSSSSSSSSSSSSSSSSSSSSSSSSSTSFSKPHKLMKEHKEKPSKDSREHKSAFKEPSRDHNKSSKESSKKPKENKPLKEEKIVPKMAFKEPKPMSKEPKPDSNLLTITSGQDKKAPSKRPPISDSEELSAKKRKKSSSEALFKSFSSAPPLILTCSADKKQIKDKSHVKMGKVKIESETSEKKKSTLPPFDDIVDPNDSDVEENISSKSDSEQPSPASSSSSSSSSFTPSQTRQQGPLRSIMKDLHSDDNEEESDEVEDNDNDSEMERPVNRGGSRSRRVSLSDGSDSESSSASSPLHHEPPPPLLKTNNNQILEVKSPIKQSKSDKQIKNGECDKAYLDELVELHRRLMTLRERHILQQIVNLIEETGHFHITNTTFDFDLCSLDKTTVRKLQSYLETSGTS
Bfl-1 A1 inh: inhibitors of the anti-apoptotic protein A1, read as caspase activation | MEF A1-2A-BIM cells, Caspase-Glo 3/7 luminescence, 3 h; percent of clofoctol response, vehicle zero | caspase activation, % (concentration not given with the values) | hit rate 0.066% among 330,000 | AID 2462;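 active = over half of replicate activation scores above 10%, or exactly half above 10 with the replicate mean above 10; inconclusive = replicate mean below 10 yet half the replicates above 10; inactive = over half of replicates below 10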;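 note: wells of about 30 µL received 50 nL stock; many hits fall short of the cut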
Vif TR-FRET: HIV-1 Vif–A3G interaction blockers – biochemical, TR-FRET, GST-Vif 1-94, biotin-A3G peptide, dose response retest, primary screen (AID 1117319); hit rate 0.57% among 260,000; inhibition, %, or IC50 in µM where a hit was titrated; TR-FRET GST-Vif / biotin-A3G peptide binding; higher % means a stronger effect; test concentration not given here; strong numbers were not always called active;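 active = above the screen mean plus three standard deviations and confirmed in dose response; inconclusive = results disagree or hit not tested in dose response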;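 note: Vif residues 1-94 fused to GST binding biotinylated APOBEC3G peptide 110-148; 0% = full assay without inhibitor and 100% = GST in place of GST-Vif; retest series ran down from 100 µM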
rRNA inh HTS OD600: further read-out of rRNA inh HTS, marked with its call; OD600 change, %; measured here: OD600 growth;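 optical density of the mix in the first replicate; 0 = DMSO median and -100 = no signal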
rRNA inh HTS RFP: further read-out of rRNA inh HTS, marked with its call; RFP signal change, %; measured here: RFP humanized mutant strains;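 first replicate; 0 = DMSO median and -100 = no signal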
Numbers without * were called inactive; u = inconclusive; x = no result given; & = joins results of further samples.

SMILES	rRNA inh HTS	rRNA inh HTS OD600	rRNA inh HTS RFP	Calb FLC	T cruzi inh	Beta apoptosis	RanGTP-Imp inh	MLL AF4-AF9 inh	Bfl-1 A1 inh	Vif TR-FRET
Cc1cccc(C(=O)NC2CC3CCCC(C2)N3C(=O)Nc2ccccc2)c1 (stereo not given)	13	-2	1.6	31	1	5	2.0	-1.7	0.7	3%
COc1ccc(-c2csc(-c3ccc(O)cc3)n2)cc1	-28*	-13*	-0.2*	-7	-35	6	-2.4	6.1	-0.1	-3%
O=C(O)c1cccc(-n2c(/C=C/c3ccccc3)nc3ccccc3c2=O)c1	4	-14	1.0	3	-5	-2	-3.3	1.8	-0.7	2%
O=C(Nc1cc(Cl)ccc1Cl)C1Cc2ccccc2O/C1=N\O (stereo not given)	-17	-14	2.0	-2	1	-5	3.4	1.0	1.3	5%
COc1ccc(N(CC(=O)Nc2ccc3c(c2)OCO3)S(=O)(=O)c2ccccc2)cc1	-3	-13	-2.0	-19	-6	5	-3.6	0.0	-1.2	4%
O=C(Nc1ccc(S(=O)(=O)C(F)F)cc1)c1ccc2c(=O)n3c(nc2c1)CCC3	-3	0	-0.7	1	-5	5	3.7	-0.7	0.2	-35%
CCSc1nnc(CNC(=O)c2ccccc2F)n1-c1ccccc1OC	9	7	-2.2	4	7	-1	4.9	-7.8	0.4	-6%
Cc1ccc(-c2cc(-c3ccccc3C)[nH]n2)c(O)c1	x	x	x	-15	x	16	x	x	-0.4	-1%
COc1ccc2nc(C)c3c(c2c1)OC(C)C3 (stereo not given)	x	x	x	-5	-8	2	-3.9	x	0.2	-8%
COc1ccc(C(=O)O)cc1S(=O)(=O)Nc1ccccc1C(=O)NCc1ccc2c(c1)OCO2	-2	-2	0.9	x	x	3	x	1.1	0.2	-7%
COc1cccc(-c2nnc(NC(=O)c3ccc(Cl)s3)o2)c1	-53	-77	-17	35	34	x	0.3	-0.7	0.1	x
Cc1ccc(N2C(=O)c3cccc4c(C(=O)O)ccc(c34)C2=O)cc1	2	-3	-2.7	0	-13	4	1.4	-1.9	-0.1	u
CCC(C)c1ccc(NC(=O)c2c([N+](=O)[O-])cnn2CC)cc1 (stereo not given)	-7	-11	-1.8	12	23	5	0.3	8.4	0.9	x
c1ccc(-c2ccccc2OCCCN2CCCCCC2)cc1	-3	1	-2.1	90*	28	8	4.6	7.9	1.0	-6%
COC(=O)Cn1c(C)nc(=O)c(-c2ccccc2)c1C	x	x	x	-4	-9	-1	1.1	x	0.0	-1%
O=C(c1ccccc1)N1CCN(c2n[nH]c(=O)[nH]c2=O)CC1	5	14	4.3	0	-5	-4	-1.4	-1.7	-0.2	2%
CCc1cc(=O)oc2cc(OCC(=O)NCc3ccccn3)ccc12	-10	7	-0.3	-5	-8	-2	1.5	-1.4	1.0	2%
Cc1ccccc1Nc1cc(=O)oc2ccccc12	x	x	x	-4	-17	12	0.2	x	1.1	-3%
Cc1cccc(N2CCN(CC(O)COCc3cccs3)CC2)c1C (stereo not given)	x	x	x	-1	-4	x	-0.9	x	0.6	x
O=C(CCCCCNC(=O)N1CCn2c1nc1ccccc12)NCc1ccc(Cl)cc1	-21	-38	1.5	15	8	-5	1.4	-1.0	-0.1	x
NC(=O)c1c(NC(=O)c2ccc(F)cc2Cl)sc2c1CCC2	-2	-5	13	1	8	-6	3.4	-2.5	0.2	x
Cc1cc(C(=O)OCC(=O)NCc2ccccc2)c2ccccc2n1	-6	-10	-0.2	x	x	0	x	-2.0	-0.3	x
CCN(CC)CCCN=C(C)C1=C(O)c2ccccc2C1=O	-4	4	5.1	-5	38	0	-7.0	2.3	-1.4	4%
COc1ccc(CN2C(=O)c3cccnc3C2=O)cc1S(=O)(=O)N1CCCC(C)C1 (stereo not given)	9	8	-1.0	-6	-3	-11	5.5	-12	0.2	3%
COc1ccc(C(O)P(=O)(OCc2ccccc2)c2ccc(N(C)C)cc2)cc1 (stereo not given)	x	x	x	-15	-5	-13	-0.2	-0.7	-0.6	2%
Cc1[nH]c2ccccc2c1C(C[N+](=O)[O-])c1cccc(O)c1 (stereo not given)	-33*	-6.7*	-2.3*	1	18	-8	u	9.1	1.6	5%
O=C(CCn1c(=S)[nH]c2ccccc2c1=O)N1CCCCC1	1	-6	-2.8	-2	-6	2	6.7	-1.4	0.6	x
Cc1ccccc1CN1[C@@H](Cc2ccccc2)COCCS1(=O)=O	x	x	x	5	-12	4	-3.4	x	-0.5	x
O=C(NCc1ccc2c(c1)OCO2)C1CCN(Cc2cnn(-c3ccccc3)c2-n2cccc2)CC1	x	x	x	-26	28	-5	2.9	x	0.8	9%
O=c1c2[nH]c3ccc(F)cc3c2nc2n1CCCS2	16	10	-2.2	-13	-6	-3	u	0.1	-1.2	5%
Cc1ccc(-c2nnc(N(C)C(=O)c3cccnc3)s2)cc1	x	x	x	32	1	x	-4.1	x	-2.4	-2%
O=C(CSc1nnnn1C1CCCC1)N1CCN(C(=O)c2ccco2)CC1	x	x	x	-6	-4	1	1.1	x	0.6	-2%
O=C(O)/C=C/c1cn(-c2ccccc2)nc1-c1ccccc1	-9	-5	2.1	-4	-9	-4	-2.1	-1.9	-0.1	8%
COc1ccc(/C=C2\Oc3cc(OC(=O)N4CCOCC4)ccc3C2=O)cc1	0	2	-0.9	-6	0	-8	22*	8.1	-1.1	x
COCCSc1nnc(NC(=O)c2ccco2)s1	4	2	-1.0	17	-16	2	4.0	-2.5	-1.4	x
C=CCn1c(=O)/c(=C/c2cc(OC)c(OC)c(OC)c2)s/c1=C(/C#N)c1nc2ccccc2n1C	x	x	x	-5	21	7	u	x	2.0	-1%
C/C(=N\NC(=O)c1cc(-c2cccc([N+](=O)[O-])c2)n[nH]1)c1ccccc1O	x	x	x	10	61*	x	2.4	x	0.1	9%
CC(=O)Nc1c(O)nc(C)[nH]c1=O	-3	13	-3.2	-6	-13	-2	2.7	4.9	-0.5	-1%
CC(C)OCCCNC(=O)Cc1ccc(F)cc1	15	1	-2.5	5	-11	-3	3.8	-2.1	2.1	-14%
CCC(C)c1ccccc1N1CC(C(=O)Nc2cc(S(=O)(=O)N3CCOCC3)ccc2OC)CC1=O (stereo not given)	-7	-2	2.6	10	13	-3	1.1	-10	-0.2	x
O=C(/C=C/c1cccc(Cl)c1)c1ccc([N+](=O)[O-])o1	1	2	9.9	88*	52	135*	-1.5	1.0	3.2	x
CN1CCN(C(=O)C23CC4CC(C)(CC(C)(C4)C2)C3)CC1	12	0	4.4	0	3	-7	-3.5	x	0.6	2%
COc1cc(/C=N\NC(=O)c2ccc(C)nc2)ccc1OC(=O)c1ccc2c(c1)OCO2	x	x	x	-13	6	-6	-1.3	x	0.1	-8%
O=S(=O)(c1ccc(Cl)cc1)N1CCNCC1	12	2	2.3	16	3	-4	5.4	1.8	-0.3	x
O=C(CC(c1ccccc1)c1ccccc1)Nc1ccncc1	-25	-20	1.0	-3	6	8	2.6	-2.5	0.3	u
COc1ccc(-n2c(SCC#N)nnc2-c2ccc(NS(=O)(=O)c3ccc(C)cc3)cc2)cc1	x	x	x	6	21	9	-2.3	x	0.7	15%
CCCCCCC(=O)Nc1nc(C)c(-c2csc(Nc3cc(OC)ccc3OC)n2)s1	5	8	6.5	-6	16	-4	0.0	4.3	0.4	2%
COc1ccccc1C(=O)COC(=O)C(CCSC)NC(=O)COc1ccccc1 (stereo not given)	9	1	0.0	-1	-3	x	0.8	0.3	0.1	-4%
CC(C)(C)C(=O)NC(=S)NNC(=O)c1ccc(-c2ccccc2)cc1	x	x	x	98*	43	76*	-0.9	x	-0.4	-13%
CC(=O)Nc1ccc(S(=O)(=O)NNC(=O)c2cccc([N+](=O)[O-])c2)cc1	6	11	-3.5	-5	6	-8	0.4	2.0	-1.5	x
COC(=O)c1ccsc1NC(=O)CSc1nnnn1-c1ccccc1SC	x	x	x	2	6	0	1.7	x	-0.8	2%
Cc1cccc(NC(=O)c2ccco2)c1C(=O)O	-2	-14	-0.3	-2	-18	-3	0.5	-2.3	1.7	5%
COc1ccc(-c2nnc3n(CCc4ccccc4)c(=O)c4ccccc4n23)cc1OC	x	x	x	33	9	10	0.8	x	-0.6	x
Cc1ccc(/C=C2\S/C(=N/S(=O)(=O)c3cccs3)NC2=O)cc1	-43	-45	-13	-4	-1	0	3.6	-3.4	-0.3	x
CC(C)CCNC(=O)CN(C(=O)Cn1nnc(-c2ccccc2F)n1)c1cccc2c1CCCC2	x	x	x	3	33	-1	-1.9	x	0.3	-1%
NC(=O)c1sc2nc(-c3cccnc3)ccc2c1N	16	-2	-1.1	0	5	-1	-2.7	-3.3	0.5	-10%
Cc1ccc(NC(=O)CN2C(=O)CSC2=O)cc1	x	x	x	4	-18	-5	0.9	x	-1.3	-5%
O=C1c2ccccc2S(=O)(=O)N1CC1CC(c2ccccc2)=NO1 (stereo not given)	x	x	x	-17	6	-5	-3.3	x	-0.1	2%
COCCNC(=O)C(c1ccc(F)cc1)N(Cc1ccccc1)C(=O)CCC(=O)Nc1nccs1 (stereo not given)	-2	9	-2.4	-4	14	-8	0.8	2.8	0.1	0%
COc1ccc2oc(=O)c(C(=O)N3CCN(c4ccccc4)CC3)cc2c1	22&22	-2&13	0.8&1.1	19	0	-2	-0.2	-3.4&-1.8	1.4	2%

Next compounds.
SMILES	rRNA inh HTS	rRNA inh HTS OD600	rRNA inh HTS RFP	Calb FLC	T cruzi inh	Beta apoptosis	RanGTP-Imp inh	MLL AF4-AF9 inh	Bfl-1 A1 inh	Vif TR-FRET
COCCCNC(=S)N1CCN(c2ccccc2)CC1	5	7	0.1	-5	4	-3	6.9	-0.1	0.8	u
CCOC(=O)[C@H]1[C@H]2COc3ccc(Br)cc3[C@@H]2N2C(=O)CN(Cc3ccc(F)cc3)C(=O)[C@@]12C	-8	-17	1.7	x	x	-3	x	1.1	-0.1	x
COCC1CCCCN1Cc1cn[nH]c1-c1ccc2cc(OC)ccc2c1 (stereo not given)	9	4	1.8	-7	70*	1	x	2.8	-0.2	-7%
O=C(O)c1cccc(COCC(F)(F)C(F)F)c1	x	x	x	-3	4	-4	1.1	x	-0.4	12%
CC1CCCN(CCCNC(=O)c2ccc(NC(=O)C3=CSCCO3)cc2)C1 (stereo not given)	6	13	2.8	0	-3	-5	2.0	1.5	1.4	x
O=C(NC(=S)N(Cc1ccccc1)c1ccccn1)C1CCCCC1	-2	-2	-2.4	6	26	-15	3.6	-1.7	-0.5	2%

These rows are one share of the data; rates above refer to the full screens.
